MenB inh – M. tuberculosis MenB inhibitors, primary screen, biochemical, absorbance. 1,4-dihydroxy-2-naphthoyl-CoA synthase (Mycobacterium tuberculosis (strain ATCC 25618 / …. MenB enzyme assay, absorbance read-out; some hits fall short of the stated cut. inhibition, %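 (about 12 µg/mL by stock and volumes)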. actives 0.43% (n = 100,000). AID 540299, 2011;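 active = mean of two replicates above 30%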;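 note: 0% = no compound and 100% = wells with inactive enzyme; the first replicate is given; strong numbers were not always called active; inactives centre near -10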
Target sequence (P9WNP5 whole entry, looked up): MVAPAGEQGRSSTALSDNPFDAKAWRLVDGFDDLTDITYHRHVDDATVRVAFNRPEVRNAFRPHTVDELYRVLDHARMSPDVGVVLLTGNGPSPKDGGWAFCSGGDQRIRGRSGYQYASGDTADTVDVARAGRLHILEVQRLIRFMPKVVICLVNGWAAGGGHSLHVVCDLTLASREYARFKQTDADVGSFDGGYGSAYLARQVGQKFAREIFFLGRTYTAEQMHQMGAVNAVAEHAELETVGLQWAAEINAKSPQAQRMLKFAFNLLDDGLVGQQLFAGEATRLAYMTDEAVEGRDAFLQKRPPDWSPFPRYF
MbtI inh – MbtI salicylate synthase inhibitors, primary screen, biochemical, fluorescence intensity; purified MbtI enzyme, fluorescence intensity read-out; inhibition, %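 (about 17 µg/mL by stock and volumes)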; actives 0.89% (n = 100,000); AID 493033, 2011;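 active = above 50% in both replicates, above 80% if mildly self-fluorescent; inactive = the rest, strongly fluorescent compounds included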;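 note: 0% = mean of negative and 100% = mean of positive controls; one replicate is shown; some compounds called inactive have numbers as strong as hits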
Target sequence (P9WFX0 whole entry, looked up): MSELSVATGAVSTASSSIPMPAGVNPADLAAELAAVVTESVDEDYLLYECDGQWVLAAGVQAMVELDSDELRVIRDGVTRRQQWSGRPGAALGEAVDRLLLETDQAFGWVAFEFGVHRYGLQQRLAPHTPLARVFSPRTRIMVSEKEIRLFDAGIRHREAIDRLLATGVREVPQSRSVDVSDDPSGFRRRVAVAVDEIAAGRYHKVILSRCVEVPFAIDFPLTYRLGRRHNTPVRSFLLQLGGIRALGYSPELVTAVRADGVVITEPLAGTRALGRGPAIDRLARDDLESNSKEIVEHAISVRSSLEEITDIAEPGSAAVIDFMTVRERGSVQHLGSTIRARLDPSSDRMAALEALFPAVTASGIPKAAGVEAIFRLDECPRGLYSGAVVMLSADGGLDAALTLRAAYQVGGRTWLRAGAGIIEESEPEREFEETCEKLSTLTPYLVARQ
Polio RdRp inh – poliovirus RdRp elongation inhibitors, primary screen, biochemical, fluorescence polarization, total intensity. actives 0.66% (n = 150,000). Genome polyprotein (Poliovirus type 1 (strain Mahoney)), P03300. AID 588519, 2011. poliovirus polymerase elongation; active compounds read low. % elongation, % (compound at 16.7 µg/mL); in the data active = % elongation below about 90%; note: some results filed as inactive read as strong as hits
Polio RdRp inh intensity – second read-out of Polio RdRp inh, no call of its own (marks repeat the call); % elongation; measured here: total intensity read-out; formula for this scale not given here;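 total fluorescence in place of polarization; lower means less elongation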
* = called active by the depositor; & = joins results of further samples.

Screening O=C(C(Sc1ccccc1)c1ccccc1)n1cnc2ccccc21 (configuration not stated) returned MenB inh -17.6, MbtI inh -53.8, Polio RdRp inh 101.0 and Polio RdRp inh intensity 95.0.
For CC(C)c1nn2c(=O)cc(COc3cccc(NS(C)(=O)=O)c3)nc2s1 the results were MenB inh 4.4, MbtI inh 3.2, Polio RdRp inh 99.0 and Polio RdRp inh intensity 102.0.
CCC(Cn1nnn(-c2ccccc2)c1=O)NC(=O)Cc1nn(CC)c(=O)c2ccccc12 (configuration not stated) was read as MenB inh -2.2, MbtI inh -6.2, Polio RdRp inh 99.0 and Polio RdRp inh intensity 102.0.
Screening Cc1cccc(N2C(=O)SC(C)C2=O)c1 (configuration not stated) returned MbtI inh -8.2, Polio RdRp inh 102.0 and Polio RdRp inh intensity 104.0.
For CC(C)CN1C(=O)S/C(=C\c2ccc(F)cc2)C1=O the results were MenB inh -19.1, MbtI inh -15.9, Polio RdRp inh 101.0 and Polio RdRp inh intensity 102.0.
For CCOC(=O)c1c(/N=C/C2C(=O)NC(=S)NC2=O)sc2c1CCCCC2 the results were MenB inh -22.8, MbtI inh 9.9, Polio RdRp inh 99.0 and Polio RdRp inh intensity 110.0.
CSc1ccccc1NC(=O)CN(C)C(=O)c1cnn(-c2ccccc2)n1 was read as MenB inh -25.5, MbtI inh -5.3, Polio RdRp inh 103.0 and Polio RdRp inh intensity 99.0.
`Cc1ccc(CS(=O)Cc2ccc(C(=O)NCC3CCCO3)o2)cc1` (configuration not stated) gave MenB inh 5.5, MbtI inh -6.8, Polio RdRp inh 100.0 and Polio RdRp inh intensity 102.0.
Cc1ccc(C(=O)C(C)Sc2nnnn2C)cc1 (configuration not stated) was read as MenB inh 16.6, MbtI inh 11.9, Polio RdRp inh 102.0 and Polio RdRp inh intensity 97.0.
For N#CC(C#N)=CNC1CCSC1 (configuration not stated) the results were MenB inh 0.4, MbtI inh 13.6, Polio RdRp inh 100.0 and Polio RdRp inh intensity 98.0.
Cc1ccc(S(=O)(=O)NCCN2CCN(Cc3ccc(Br)s3)CC2)cc1 was read as MenB inh -17.8, MbtI inh -3.0, Polio RdRp inh 104.0 and Polio RdRp inh intensity 102.0.
`COc1ccc(-n2c(SCc3nc4ccccc4s3)nc3ccccc32)cc1` gave MenB inh -39.2, MbtI inh 2.4, Polio RdRp inh 113.0 and Polio RdRp inh intensity 112.0.
`Cc1ccc(NC(=O)CS(=O)CC(=O)NC2CCN(Cc3ccccc3)CC2)c(C)c1` (configuration not stated) gave MenB inh -2.1, MbtI inh -5.3, Polio RdRp inh 103.0 and Polio RdRp inh intensity 99.0.
Screening COc1ccc(-c2ccnc(SCC(=O)N(C)C)n2)cc1 returned MenB inh -17.9, MbtI inh 128.5, Polio RdRp inh 102.0 and Polio RdRp inh intensity 104.0.
`Cn1cnnc1SCc1nc2ccccn2c1Br` gave MenB inh -9.4, MbtI inh 4.9, Polio RdRp inh 106.0 and Polio RdRp inh intensity 107.0.
For CCOC(=O)c1c(NC(=O)CN2CCC3(CC2)OCCO3)sc(C)c1C the results were MenB inh -21.6, MbtI inh -10.4, Polio RdRp inh 106.0 and Polio RdRp inh intensity 99.0.
`CN1CCN(S(=O)(=O)c2ccc3c(c2)C(=NO)c2cc(S(=O)(=O)N4CCN(C)CC4)ccc2-3)CC1` gave MenB inh 20.0, MbtI inh -3.8, Polio RdRp inh 99.0 and Polio RdRp inh intensity 102.0.
Screening CCOc1cnn(C)c(=O)c1OCC returned MenB inh 10.5, MbtI inh -6.2, Polio RdRp inh 99.0 and Polio RdRp inh intensity 103.0.
`COc1nc(-c2ccccc2)cc(C(F)(F)F)n1` gave MenB inh -0.5, MbtI inh 10.5, Polio RdRp inh 99.0 and Polio RdRp inh intensity 107.0.
`NS(=O)(=O)c1cccc(C(=O)NCc2ccccc2)c1` gave MenB inh -6.0, Polio RdRp inh 106.0 and Polio RdRp inh intensity 102.0.

Looked up by compound from above:
For N#CC(C#N)=CNC1CCSC1 (configuration not stated) the results were MenB inh 0.4, MbtI inh 13.6, Polio RdRp inh 100.0 and Polio RdRp inh intensity 98.0.
Screening COc1ccc(-c2ccnc(SCC(=O)N(C)C)n2)cc1 returned MenB inh -17.9, MbtI inh 128.5, Polio RdRp inh 102.0 and Polio RdRp inh intensity 104.0.
Cc1ccc(C(=O)C(C)Sc2nnnn2C)cc1 (configuration not stated) was read as MenB inh 16.6, MbtI inh 11.9, Polio RdRp inh 102.0 and Polio RdRp inh intensity 97.0.
`Cc1ccc(CS(=O)Cc2ccc(C(=O)NCC3CCCO3)o2)cc1` (configuration not stated) gave MenB inh 5.5, MbtI inh -6.8, Polio RdRp inh 100.0 and Polio RdRp inh intensity 102.0.

(further entries)
O=C(Cn1cnc2c(cnn2CCO)c1=O)N1CCCc2ccccc21 was read as MenB inh -0.4, MbtI inh -1.2, Polio RdRp inh 103.0 and Polio RdRp inh intensity 107.0.
`Cc1occc1C(=O)Nc1cc(C(C)(C)C)on1` gave MenB inh -1.9, MbtI inh -5.2, Polio RdRp inh 100.0 and Polio RdRp inh intensity 101.0.
CC(C)(CO)Nc1c[nH]c(=O)[nH]c1=O was read as MenB inh -14.1, MbtI inh 6.2, Polio RdRp inh 100.0 and Polio RdRp inh intensity 102.0.
For COc1ccccc1C(=O)ON1C(=O)CCC1=O the results were MenB inh 6.8, MbtI inh -9.4, Polio RdRp inh 100.0 and Polio RdRp inh intensity 98.0.
`Cc1ccc(N2C(=O)CC2(C(=O)NC2CCCCC2)c2ccccc2F)cc1` (configuration not stated) gave MenB inh 10.2, MbtI inh 17.9, Polio RdRp inh 103.0 and Polio RdRp inh intensity 97.0.
Screening Cc1cc(CNCC2CCCCC2)c(C)n1-c1nccs1 returned MenB inh -15.0, MbtI inh -5.6, Polio RdRp inh 103.0 and Polio RdRp inh intensity 108.0.
Screening CCCC(=O)c1cc2cc(Cl)ccc2oc1=O returned MenB inh 8.1, MbtI inh 6.3, Polio RdRp inh 105.0 and Polio RdRp inh intensity 100.0.
C=CCn1nnnc1NCc1ccccc1 was read as MenB inh -79.5, MbtI inh -5.6, Polio RdRp inh 107.0 and Polio RdRp inh intensity 100.0.
CCC1CCCCN1C(=O)COC(=O)c1ccc(NC(C)=O)cc1 (configuration not stated) was read as MbtI inh 0.9, Polio RdRp inh 104.0 and Polio RdRp inh intensity 105.0.
For CCCc1c(C(=O)Nc2ncn[nH]2)cnn1-c1ccccc1 the results were MenB inh 4.5, MbtI inh 1.1, Polio RdRp inh 105.0 and Polio RdRp inh intensity 114.0.
Screening CCN(c1ccccc1)S(=O)(=O)c1ccc2c(c1)C(C)(C)C(=O)N2C returned MenB inh 6.0, MbtI inh -3.8, Polio RdRp inh 103.0 and Polio RdRp inh intensity 105.0.
Screening ONC=Nc1nonc1-c1cccnc1 returned MenB inh -0.6, MbtI inh 0.3, Polio RdRp inh 102.0 and Polio RdRp inh intensity 104.0.
For N#CC(C(=O)c1ccc(-c2nc3ccccc3s2)s1)c1nc2ccccc2s1 (configuration not stated) the results were MenB inh -21.1, MbtI inh -15.6, Polio RdRp inh 109.0 and Polio RdRp inh intensity 112.0.
`O=C(Nc1ccc(S(=O)(=O)N2CCCCC2c2cccnc2)cc1)c1ccc2c(c1)OCO2` (configuration not stated) gave MenB inh -20.9, MbtI inh 8.4, Polio RdRp inh 101.0 and Polio RdRp inh intensity 100.0.
Screening O=C(O)c1cc(=O)cc(C(=O)O)o1 returned MenB inh 6.6, Polio RdRp inh 93.0 and Polio RdRp inh intensity 103.0.
For CCN(Cc1ccccc1)c1ccc(C2C3=C(CCCC3=O)Nc3[nH]c(=O)[nH]c(=O)c32)cc1 (configuration not stated) the results were MenB inh -5.9, Polio RdRp inh 129.0 and Polio RdRp inh intensity 137.0.
`CCOC(=O)C1CCN(CC(=O)Nc2ccc(C(F)(F)F)cc2Cl)CC1` gave MenB inh -13.4, MbtI inh 1.6, Polio RdRp inh 102.0 and Polio RdRp inh intensity 104.0.
`O=C1CCCN1CCCNS(=O)(=O)c1cccc(Br)c1` gave MenB inh -14.3, MbtI inh 8.2, Polio RdRp inh 104.0 and Polio RdRp inh intensity 107.0.
For O=C(OC(C(=O)NC1CCCCC1)c1ccccc1)c1ccco1 (configuration not stated) the results were MenB inh -50.1, MbtI inh -7.7, Polio RdRp inh 106.0 and Polio RdRp inh intensity 100.0.
Screening CCOC(=O)Cc1nc(C)cs1 returned MenB inh -6.9, Polio RdRp inh 106.0 and Polio RdRp inh intensity 108.0.
C=CCOc1cccc(C(=O)NCC)c1 was read as MenB inh 15.1, MbtI inh 27.8, Polio RdRp inh 101.0 and Polio RdRp inh intensity 104.0.
For Cc1ccc2nc(COC(=O)c3ccc4c(c3)OCCO4)cc(=O)n2c1 the results were MenB inh 0.7, MbtI inh 41.9, Polio RdRp inh 98.0 and Polio RdRp inh intensity 102.0.
`O=C(Nc1cc(Cl)cc(Cl)c1)C(Sc1ncccn1)c1ccccc1` (configuration not stated) gave MbtI inh -9.3, Polio RdRp inh 104.0 and Polio RdRp inh intensity 108.0.
Screening Cc1[nH]c(=S)[nH]c(=O)c1Cc1ccccc1 returned MenB inh -16.5&1.9, MbtI inh 12.7&12.0, Polio RdRp inh 102.0&101.0 and Polio RdRp inh intensity 94.0&104.0.
For COc1ccc(Cl)cc1N1C(=O)C2C(c3ccccc3F)NN(C(=O)c3ccc(C)cc3)C2C1=O (configuration not stated) the results were MenB inh -6.5, MbtI inh -8.4, Polio RdRp inh 102.0 and Polio RdRp inh intensity 106.0.
Screening Cc1ccc(CNC(=O)N2CCn3cccc3C2C)cc1 (configuration not stated) returned MenB inh 16.6, MbtI inh 0.6, Polio RdRp inh 102.0 and Polio RdRp inh intensity 102.0.
`O=C(Cn1cnc2sccc2c1=O)NC1CCS(=O)(=O)C1` (configuration not stated) gave MenB inh -5.8, MbtI inh -1.7, Polio RdRp inh 103.0 and Polio RdRp inh intensity 112.0.
For CCn1c(=O)c(=O)[nH]c2cc(C(=O)NCc3ccc4c(c3)OCO4)ccc21 the results were MenB inh -24.5, MbtI inh -14.2, Polio RdRp inh 105.0 and Polio RdRp inh intensity 114.0.
`CCc1c(C)c(C#N)c2nc3ccccc3n2c1N1CCN(CCO)CC1` gave MenB inh -16.8, MbtI inh -6.2, Polio RdRp inh 102.0 and Polio RdRp inh intensity 104.0.
`O=C(O)CCN1CCn2c3c(c4cc(C5CCCCC5)ccc42)CCCC31` (configuration not stated) gave MenB inh -6.5, Polio RdRp inh 106.0 and Polio RdRp inh intensity 117.0.
Screening CCOC(=O)c1cc(C#N)c(SCC(=O)OCc2ccc(C#N)cc2)nc1C returned MenB inh -2.9, MbtI inh -5.8, Polio RdRp inh 104.0 and Polio RdRp inh intensity 104.0.
Screening COc1ccc(CCNC(=O)c2ccc3nc(-c4ccccc4NC(C)=O)c(=O)[nH]c3c2)c(OC)c1 returned MenB inh -12.8, MbtI inh -32.4, Polio RdRp inh 102.0 and Polio RdRp inh intensity 105.0.
`CCCc1cc(=O)[nH]c(Nc2ccccc2)n1` gave MenB inh 11.2, MbtI inh 10.3, Polio RdRp inh 101.0 and Polio RdRp inh intensity 98.0.
For CNCC(O)c1ccc(O)c(OC)c1 (configuration not stated) the results were MenB inh 3.9, MbtI inh -6.3, Polio RdRp inh 100.0 and Polio RdRp inh intensity 101.0.
`C[C@@H]1O[C@@H](O[C@H]2[C@H](Oc3cc(O)c4c(c3)O[C@H](c3ccc(O)cc3)CC4=O)O[C@H](CO)[C@@H](O)[C@@H]2O)[C@H](O)[C@H](O)[C@H]1O` gave MenB inh -0.5, MbtI inh -1.8, Polio RdRp inh 100.0 and Polio RdRp inh intensity 105.0.
Screening O=C(Nc1ccc(Cl)cc1)c1nccnc1CO returned MenB inh -24.3, MbtI inh -7.3, Polio RdRp inh 100.0 and Polio RdRp inh intensity 107.0.
CC(C)COC(=O)CCn1[nH]c(=O)c2ccccc2c1=O was read as MenB inh -15.9, MbtI inh -4.7, Polio RdRp inh 101.0 and Polio RdRp inh intensity 107.0.
O=C(OCc1ccc(Cl)cc1Cl)C1CCC1 was read as MbtI inh -2.6, Polio RdRp inh 101.0 and Polio RdRp inh intensity 102.0.
Screening CNC(=O)c1cc(I)c(OC)c(OC)c1 returned MenB inh 0.9, MbtI inh 0.2, Polio RdRp inh 99.0 and Polio RdRp inh intensity 102.0.
CN(Cc1ccccc1)C(=O)CSc1nnnn1C was read as MenB inh -6.5, MbtI inh -8.4, Polio RdRp inh 104.0 and Polio RdRp inh intensity 103.0.
COc1ccc(Cl)cc1NC1=NCC(C)S1 (configuration not stated) was read as MenB inh -27.4, MbtI inh -10.1, Polio RdRp inh 103.0 and Polio RdRp inh intensity 106.0.
For O=C(COc1ccccc1O)N1CCCCC1 the results were MbtI inh -0.2, Polio RdRp inh 100.0 and Polio RdRp inh intensity 96.0.
COc1ccc2c(c1)OC(O)(C(F)(F)F)CC2=O (configuration not stated) was read as MenB inh -17.6, MbtI inh 17.8, Polio RdRp inh 102.0 and Polio RdRp inh intensity 93.0.
Screening CCOC(=O)c1csc2ncc(C#N)c(=O)n12 returned MenB inh -8.6, MbtI inh 75.4, Polio RdRp inh 100.0 and Polio RdRp inh intensity 95.0.

From PubChem BioAssay
